From PubChem
2A Renilla – lowers the Renilla signal of an FMDV 2A StopGo reporter; 0.32% of 120,000 active; Potency, µM (titrated, usually from 57.5 µM), without a hit: at the highest dose signal change, negative = less light; HEK cells with a luciferase reporter of 2A StopGo recoding; active means well fitted falling curve with a large enough effect; inconclusive means small, poorly fitted or top-dose-only effect; inactive means no such curve, though single readings can be large or run the other way; note: nearly all actives have a fitted effect of over 55% in size; overnight with compound
2A firefly – lowers the firefly signal of an FMDV 2A StopGo reporter. HEK cells with a luciferase reporter of 2A StopGo recoding. Potency, µM (series often up to 57.5 µM), for inactives: top-dose signal change, negative = less light. AID 1745856. 0.23% of 120,000 active; active = well fitted falling curve with a large enough effect; inconclusive = small, poorly fitted or top-dose-only effect; inactive = no such curve, though single readings can be large or run the other way; note: nearly all actives have a fitted effect of over 60% in size; overnight with compound
Numbers without * were called inactive; [ ] = another dose, or the depositor's remark. % is set by controls: 0 for no effect and ±100 for the full control effect; potency is the fitted concentration of half-maximal effect.

CCCc1nnc(NC(=O)CSc2nnc3c4ccccc4n(CC)c3n2)s1 was read as 2A Renilla -9% and 2A firefly -5%.
O=[N+]([O-])c1ccccc1/C=N/OCc1c(F)cccc1Cl was read as 2A Renilla 3% and 2A firefly 159%[activator].
Screening CN(Cc1cc2ccccc2[nH]c1=O)S(=O)(=O)c1ccccc1 returned 2A Renilla 35%[activator] and 2A firefly 84%[activator].
CCOC(=O)c1cc2c(=O)n3ccccc3nc2n(CC(C)C)c1=NC(=O)C(C)Oc1ccccc1 (stereo not given) was read as 2A Renilla 28% and 2A firefly -14%.
Screening CCCc1nc2nc(C)c(NS(=O)(=O)c3ccc(F)cc3)c(=O)n2[nH]1 returned 2A Renilla -8% and 2A firefly 1%.
Screening Cc1ccc(NC(=O)C2CCN(c3ncnc4c3sc3ncccc34)CC2)cc1F returned 2A Renilla -5% and 2A firefly 8%.
For CCOC(=O)c1cc(-c2ccccc2)n(CCCC(=O)Nc2cccc(C)c2)c1C the results were 2A Renilla 15% and 2A firefly 10%.
For O=c1c2ccccc2nc(SCc2nnc(-c3ccccc3)o2)n1CCCO the results were 2A Renilla 12% and 2A firefly 87%[activator].
For COCCCNc1nc(-c2ccccc2O)nc2ccccc12 the results were 2A Renilla 35%[activator] and 2A firefly 29%.
`Cn1c(=O)c2sc(N3CCCC3)nc2n(CC(=O)NC(C)(C)C)c1=O` gave 2A Renilla 2% and 2A firefly -3%.
CCOc1ccc(CC(=O)Nc2c(C(=O)c3ccccc3)oc3ccc(Cl)cc23)cc1OCC was read as 2A Renilla -6% and 2A firefly 5%.
`Cc1ccc(NC(=O)C2CCCN(c3nnc(C)c4c(C)n(-c5ccccc5)nc34)C2)cc1Cl` (stereo not given) gave 2A Renilla 39%[activator] and 2A firefly 19%.
Screening Cc1ccc(-n2ncc3c(N(CCO)Cc4ccccc4)ncnc32)cc1 returned 2A Renilla 148%[activator] and 2A firefly 132%[activator].
For CCc1ccc(C2=CC(c3ccccc3C)n3nnnc3N2)cc1 (stereo not given) the results were 2A Renilla 6% and 2A firefly 53%[activator].
O=C(CCc1ncc(-c2ccc(F)cc2F)o1)Nc1ccc(N2CCOCC2)cc1N1CCOCC1 was read as 2A Renilla -6% and 2A firefly -1%.
For c1csc(CNCCCN2CCCCC2)c1 the results were 2A Renilla -12% and 2A firefly -7%.
Screening COC(=O)c1ccc(C2/C(=C(\O)c3cccc(OC)c3)C(=O)C(=O)N2c2ccccn2)cc1 (stereo not given) returned 2A Renilla 3% and 2A firefly 143%[activator].
`Cc1oc(-c2ccccc2F)nc1CS(=O)(=O)CC(=O)N1CCN(c2ccccc2)CC1` gave 2A Renilla inconclusive and 2A firefly inconclusive.
`CC(C)n1nc(C(=O)Nc2ccc(S(=O)(=O)C(F)F)cc2)c2ccccc2c1=O` gave 2A Renilla 6% and 2A firefly 13%.
Screening CCOc1ccc(C(C)NC(=O)Cn2c(=O)c3c(ncn3C)n(C)c2=O)cc1 (stereo not given) returned 2A Renilla -11% and 2A firefly -12%.
Screening Cc1nc2ccc(S(=O)(=O)N(C)CC(=O)Nc3cccc(C(F)(F)F)c3)cc2s1 returned 2A Renilla 4% and 2A firefly 15%.
Screening Cc1ccc(-c2cn3nc(N4CCCC(C(=O)Nc5ccc(F)cc5)C4)sc3n2)cc1 (stereo not given) returned 2A Renilla -19% and 2A firefly -5%.
`CCn1cc(C(=O)N2CCN(c3ccc(C)cc3)C(C)C2)c(=O)c2cc(S(=O)(=O)N3CCCC3)ccc21` (stereo not given) gave 2A Renilla -7% and 2A firefly -20%.
Cn1c(=O)c2c(ncn2CC(=O)Nc2ccc(F)c([N+](=O)[O-])c2)n(C)c1=O was read as 2A Renilla -7% and 2A firefly -5%.
`CC1CCn2c(nc3cc(C(=O)NCc4ccccc4)ccc32)C1` (stereo not given) gave 2A Renilla -13% and 2A firefly 0%.
Screening O=C(O)C(=O)/C=C/c1cccs1 returned 2A Renilla 5% and 2A firefly 5%.
For COc1cccc(/C=C/C(=O)c2ccccc2C)c1OC the results were 2A Renilla inconclusive and 2A firefly 0%.
`CCOc1ccc(NC(=O)CN2C(=O)CCSc3ccc(S(=O)(=O)N4CCCC4)cc32)cc1` gave 2A Renilla -5% and 2A firefly -24%.
Screening CCN(c1ccc(Cl)cc1)S(=O)(=O)c1nnc(NC(=O)C2CCCCC2)s1 returned 2A Renilla -10% and 2A firefly -15%.
Screening CCOc1ccccc1NC(=O)Cn1nnc2sc3c(c2c1=O)CCC(C(C)(C)C)C3 (stereo not given) returned 2A Renilla -2% and 2A firefly -8%.
CCOc1ccc(-n2ccn3c(SC(CC)C(=O)Nc4ccc(OC)cc4)nnc3c2=O)cc1 (stereo not given) was read as 2A Renilla -6% and 2A firefly 0%.
Screening COc1ccccc1NC(=O)C(Cc1ccccc1)NS(=O)(=O)c1cccc2nsnc12 (stereo not given) returned 2A Renilla 149%[activator] and 2A firefly -12%.
For CC(C(=O)N(C)C)S(=O)(=O)Cc1cccc(Br)c1 (stereo not given) the results were 2A Renilla -1% and 2A firefly 1%.
`CCN(c1ccc(Cl)cc1)S(=O)(=O)c1nnc(NC(=O)c2ccco2)s1` gave 2A Renilla 55%[activator] and 2A firefly -22%.
O=C(Cc1c[nH]c2ccccc12)NCc1cn2ccccc2n1 was read as 2A Renilla -2% and 2A firefly 13%.
COC(=O)c1ccc(C(=O)O)cc1 was read as 2A Renilla 9% and 2A firefly 11%.
Screening CCOC(=O)c1c(N)n(-c2ccc(C)c(C)c2)c2nc3ccccc3nc12 returned 2A Renilla -10% and 2A firefly -13%.
`COc1ccc(C2(CNC(=O)c3ccc(Cl)c(Cl)c3)CCOCC2)cc1` gave 2A Renilla -4% and 2A firefly 3%.
`CCOC(=O)c1cc(S(=O)(=O)N2CCN(c3ccccc3OC)CC2)[nH]n1` gave 2A Renilla 40%[activator] and 2A firefly -16%.
`COc1ccc(-n2c(C)c(C(=O)O)c3cc(OC)ccc32)cc1` gave 2A Renilla -9% and 2A firefly 0%.
`Nc1ccc(N)cc1` gave 2A Renilla -6% and 2A firefly -10%[11.5 µM].
For N#C/C(=C\c1ccc(OCc2ccc(Cl)cc2Cl)cc1)c1nc2ccccc2[nH]1 the results were 2A Renilla 36%[activator] and 2A firefly 36%.
For O=C1/C(=C/c2ccccc2F)Cc2ccccc21 the results were 2A Renilla 94%[activator] and 2A firefly 181%[activator].
For CCOc1ccc(CN(Cc2ccccc2)Cc2cc(=O)n3nc(CC)sc3n2)cc1 the results were 2A Renilla 7% and 2A firefly 2%.
O=C(O)CC(NC(=O)Cc1cccc(F)c1)c1ccccc1 (stereo not given) was read as 2A Renilla -1% and 2A firefly -7%.
`Cc1ccc2c(c1)N(C(=O)N1CCC(C(=O)NCc3cccc(Br)c3)CC1)CCO2` gave 2A Renilla 2% and 2A firefly -25%.
For O=C(Nc1ccc2oc(-c3cccnc3)nc2c1)c1ccccc1Cl the results were 2A Renilla 8% and 2A firefly 150%[activator].
Cc1nn(Cc2ccc(F)cc2)c(C)c1NC(=O)c1noc2c1CCc1ccccc1-2 was read as 2A Renilla -11% and 2A firefly 23%.
COc1cccc(CSc2nc3n(n2)C(c2ccc(C(=O)O)cc2)C(C(=O)Nc2ccccc2)=C(C)N3)c1 (stereo not given) was read as 2A Renilla -4% and 2A firefly -9%.
For CCCCN(CCCC)S(=O)(=O)c1ccc(C(=O)Nc2sc3c(c2C(N)=O)CCN(CC)C3)cc1 the results were 2A Renilla 4% and 2A firefly -12%.
For CCOc1ccc(CNC(=O)CC(C)n2nc(C)cc2C)cc1OC (stereo not given) the results were 2A Renilla -13% and 2A firefly -1%.
`COc1cc2[nH]c(=O)n(Cc3ccc(C(=O)N4CCN(c5cc(Cl)ccc5C)CC4)cc3)c(=O)c2cc1OC` gave 2A Renilla -14% and 2A firefly -10%.
Screening COc1ccccc1-c1noc(-c2ccc(NCC3CCCO3)c([N+](=O)[O-])c2)n1 (stereo not given) returned 2A Renilla 9% and 2A firefly 175%[activator].
For Cn1c(C2=C(O)CN(c3ccc(C(=O)O)cc3)C2=N)nc2ccccc21 the results were 2A Renilla -6% and 2A firefly -3%.
For COc1cccc(CNCCSc2nnnn2C)c1OCc1ccccc1F the results were 2A Renilla -4% and 2A firefly -11%.
Screening N#Cc1c(NC(=O)CSc2ccccn2)sc2c1CCCCC2 returned 2A Renilla 16% and 2A firefly 57%[activator].
Cc1nc(-c2ccc(S(=O)(=O)N3CCN(c4cccc(Cl)c4)CC3)cc2)co1 was read as 2A Renilla 2% and 2A firefly 8%.
CC(C)CC(N)c1ccccc1 (stereo not given) was read as 2A Renilla 12% and 2A firefly -3%.
`COc1cn(CC(=O)Nc2ccc(C(N)=O)cc2)c(CSc2ccc(C)cc2)cc1=O` gave 2A Renilla -4% and 2A firefly 10%.
Screening C#CCCCN([C@H](C(=O)OC)C(C)C)S(=O)(=O)c1ccc(F)cc1Br returned 2A Renilla 8% and 2A firefly -8%.

10 structures already listed, sorted by length of the SMILES, high to low.
`COc1cc2[nH]c(=O)n(Cc3ccc(C(=O)N4CCN(c5cc(Cl)ccc5C)CC4)cc3)c(=O)c2cc1OC` gave 2A Renilla -14% and 2A firefly -10%.
COc1cccc(CSc2nc3n(n2)C(c2ccc(C(=O)O)cc2)C(C(=O)Nc2ccccc2)=C(C)N3)c1 (stereo not given) was read as 2A Renilla -4% and 2A firefly -9%.
For CCCCN(CCCC)S(=O)(=O)c1ccc(C(=O)Nc2sc3c(c2C(N)=O)CCN(CC)C3)cc1 the results were 2A Renilla 4% and 2A firefly -12%.
Screening COc1ccccc1-c1noc(-c2ccc(NCC3CCCO3)c([N+](=O)[O-])c2)n1 (stereo not given) returned 2A Renilla 9% and 2A firefly 175%[activator].
`COc1cn(CC(=O)Nc2ccc(C(N)=O)cc2)c(CSc2ccc(C)cc2)cc1=O` gave 2A Renilla -4% and 2A firefly 10%.
Screening C#CCCCN([C@H](C(=O)OC)C(C)C)S(=O)(=O)c1ccc(F)cc1Br returned 2A Renilla 8% and 2A firefly -8%.
For CCOc1ccc(CNC(=O)CC(C)n2nc(C)cc2C)cc1OC (stereo not given) the results were 2A Renilla -13% and 2A firefly -1%.
For COc1cccc(CNCCSc2nnnn2C)c1OCc1ccccc1F the results were 2A Renilla -4% and 2A firefly -11%.
Screening N#Cc1c(NC(=O)CSc2ccccn2)sc2c1CCCCC2 returned 2A Renilla 16% and 2A firefly 57%[activator].
CC(C)CC(N)c1ccccc1 (stereo not given) was read as 2A Renilla 12% and 2A firefly -3%.

The results go on.
Screening Cc1cccc(C(=O)Nc2ccc(C(=O)OCc3cc(=O)n4ccsc4n3)cc2)c1 returned 2A Renilla -4% and 2A firefly 1%.
`CN(Cc1ccc(F)cc1)C(=O)CCc1ncc(-c2ccccc2)o1` gave 2A Renilla 9% and 2A firefly 29%.
O=C(/C(=C\c1ccccc1F)c1nc2ccccc2o1)c1ccccc1 was read as 2A Renilla inconclusive and 2A firefly -73%.
For Cc1nnc(SCC2=C(C(=O)O)N3C(=O)[C@@H](NC(=O)Cn4cnnn4)[C@H]3SC2)s1 the results were 2A Renilla -7% and 2A firefly -10%[11.5 µM].
`C/C(=N\NC(N)=S)c1ccc(Br)cc1` gave 2A Renilla inconclusive and 2A firefly inconclusive.
Screening COc1cccc(CNC(=O)c2cc(Sc3cccc(Cl)c3)nc3ccccc23)c1 returned 2A Renilla -6% and 2A firefly -10%.
`Fc1ccc(CNCc2cccc(Oc3ccccc3)c2)cc1` gave 2A Renilla -7%[1.06 µM] and 2A firefly 15%.
For COc1cc2c(cc1OC)C(COc1cc(C)cc(C)c1)N(C(=O)COc1ccccc1)CC2 (stereo not given) the results were 2A Renilla inconclusive and 2A firefly -44%.
Screening CCc1ccccc1NC(=O)N1CCN(S(C)(=O)=O)CC1 returned 2A Renilla -9% and 2A firefly 0%.
For Cc1cccc(C)c1Nc1c(-c2ccccn2)nc2c(C)cccn12 the results were 2A Renilla -2% and 2A firefly -13%.
For COc1ccc(-c2cc3c(SCC(=O)N4CCN(c5ccc(F)cc5)CC4)nccn3n2)cc1 the results were 2A Renilla -2% and 2A firefly 3%.
Screening CN(C)S(=O)(=O)N(CC(=O)Nc1cc(C(F)(F)F)ccc1Cl)c1ccccc1 returned 2A Renilla 32%[activator] and 2A firefly -12%.
Screening CC1=C(C(=O)NCc2ccc(Cl)cc2)C2(CCC(C)CC2)OC1=O (stereo not given) returned 2A Renilla -1% and 2A firefly -2%.
`Cc1cccc(NC(=O)CN2CCN(C(=O)CC(C)NC(=O)c3ccccc3)CC2)c1C` (stereo not given) gave 2A Renilla -2% and 2A firefly 2%.
COc1ccccc1-c1nnc(C2CCN(C(=O)c3cccc(Cl)c3)CC2)o1 was read as 2A Renilla 10% and 2A firefly 5%.
For CCOC(=O)NC(CNC(=O)C(C)OCc1ccccc1)CC(C)C (stereo not given) the results were 2A Renilla 19% and 2A firefly 21%.
For CCc1nn2c(=O)cc(CN(C)C3CCCCCC3)nc2s1 the results were 2A Renilla -9% and 2A firefly -4%.
Screening COc1ccc(S(=O)(=O)NC(C)c2ccccc2)cc1-c1noc(C(C)(C)C)n1 (stereo not given) returned 2A Renilla 165%[activator] and 2A firefly 7%.
`CCC(CC)NC(=O)CCc1c(C)c2ccc(OC)cc2oc1=O` gave 2A Renilla 19% and 2A firefly 21%.
Screening CCOCCSc1nnc(-c2nn(Cc3ccccc3)c(=O)c3ccccc23)o1 returned 2A Renilla 3% and 2A firefly 3%.
Screening Cc1ccc(S(=O)(=O)N2CCC(C(=O)Nc3cc(C)ccc3C)CC2)cc1 returned 2A Renilla 11% and 2A firefly -19%.
For O=C(CCc1c[nH]c2ccccc12)OCC(=O)N1CCCC1=O the results were 2A Renilla -14% and 2A firefly -10%.
Cc1ccc2nc(NC(=O)c3cccn(Cc4ccccc4F)c3=O)sc2c1 was read as 2A Renilla 13% and 2A firefly 33%.

A portion of the library, so the mix of outcomes need not match the whole.
